Bioassay records (PubChem BioAssay)
Beta2AR agonist – agonists of human beta-2 adrenergic receptor inducing internalization | Am2.2-beta2AR cells, FAP receptor internalization, flow cytometry; reference of the scale not given here | AID 504454 | P07550 | response, % (test concentration not listed) | hit rate 0.43% among 340,000;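 active = response above a set limit, near 3 SD of response in nonfluorescent compounds, cut at about 42% in these data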;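 also: stock transfer was 100 nL into about 11 µL; a reference agonist was the positive control; negative values mostly stem from fluorescent compounds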
Target sequence (P07550 whole entry, looked up): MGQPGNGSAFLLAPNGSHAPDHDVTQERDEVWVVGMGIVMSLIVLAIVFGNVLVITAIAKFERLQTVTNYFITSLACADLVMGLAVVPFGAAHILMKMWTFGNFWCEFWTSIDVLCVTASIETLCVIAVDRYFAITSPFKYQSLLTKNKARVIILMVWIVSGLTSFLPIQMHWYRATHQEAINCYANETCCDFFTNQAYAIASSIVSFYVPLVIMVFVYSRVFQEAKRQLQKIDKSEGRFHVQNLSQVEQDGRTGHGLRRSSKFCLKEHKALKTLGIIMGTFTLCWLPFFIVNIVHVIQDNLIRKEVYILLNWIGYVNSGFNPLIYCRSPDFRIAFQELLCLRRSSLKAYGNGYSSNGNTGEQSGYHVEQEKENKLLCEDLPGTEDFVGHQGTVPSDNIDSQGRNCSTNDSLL
HNF4A DNA FP – change in binding of human HNF4 alpha to DNA; HNF4a-FITC DNA binding, fluorescence polarization, 1 h; activity change, % at 10 µM; hit rate 0.3% among 360,000; AID 1224865; in the data active = activity change above about 30%, passing the limit was not always enough;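 also: controls were the assay level and a saturating level of protein; the project sought stronger binding though the title names inhibitors; some compounds called inactive have numbers as strong as hits; positive values seem to mean higher polarization but the record does not say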
Ecoli rRNA inh – inhibits bacterial ribosomal RNA function over humanized ribosomes | E. coli WT GFP vs humanized-ribosome RFP mutants, fluorescence, 24 h; active compounds read low; DMSO median 0, no signal -100 | GFP signal change (wild-type ribosome), % (test concentration not listed) | hit rate 1.6% among 350,000 | AID 720706;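 active = significant combined selectivity score with lowered wild-type GFP, culture density cut under 30%, mutant RFP and density less affected; inactive = any of these conditions unmet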; also: one replicate is shown; some compounds called inactive have numbers as strong as hits
UCH37 DUB inh – human UCH37 deubiquitinating enzyme inhibition; inhibition, % (test concentration not listed); AID 588478; purified proteasome/UCH37, Ub-AMC cleavage fluorescence; hit rate 0.33% among 330,000;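 active = mean of two replicates above 20%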;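 also: 0% = compound-free wells with enzyme and 100% = wells lacking proteasome; stock transfer was 100 nL into about 20 µL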
Target sequence (Q9Y5K5 whole entry, looked up): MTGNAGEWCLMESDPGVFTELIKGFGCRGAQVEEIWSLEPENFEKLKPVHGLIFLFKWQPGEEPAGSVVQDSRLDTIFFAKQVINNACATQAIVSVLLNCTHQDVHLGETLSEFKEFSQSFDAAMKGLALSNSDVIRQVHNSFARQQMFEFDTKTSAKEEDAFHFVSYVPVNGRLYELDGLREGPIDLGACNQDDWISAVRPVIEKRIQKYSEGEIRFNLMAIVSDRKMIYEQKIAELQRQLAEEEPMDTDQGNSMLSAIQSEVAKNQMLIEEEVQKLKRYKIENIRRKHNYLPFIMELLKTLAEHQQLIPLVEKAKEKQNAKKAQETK
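Assay system: Proteasome-bound UCH37. Buffer or medium: pH 7.4 Tris-HCl (50 mM) with ovalbumin, ATP-MgCl2, DTT. Incubation: 30 min preincubation with enzyme, 25 min cleavage at room temperature. Measured by: fluorescence, ex 355 nm, em 460 nm. Read-out basis: percent inhibition. Control set: wells without proteasome as full block, compound-free enzyme plus substrate as uninhibited.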
E coli growth – E. coli growth inhibition. Escherichia coli growth, OD600, 23 h; active compounds read low. OD600 absorbance (test concentration not listed). hit rate 0.21% among 330,000. AID 1053175;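 active = OD600 absorbance below the run mean of sample wells minus 3.6 SD, in any replicate, cut at about 0.56 in these data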;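 also: stock transfer was 300 nL into about 60 µL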
FGF22 binding – FGF22 (human) thermal shift binding; Q9HCT0; recombinant FGF22 thermal shift, SYPRO orange fluorescence; percent of sucrose octasulfate shift, DMSO zero; calls only at 9.99 µM; hit rate 1.5% among 340,000;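 active = melting point raised past a set limit in the mean and every replicate; three in four hits are not shown here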
ALR H2O2 inh – inhibitors of human sulfhydryl oxidase ALR | purified ALR, DTT oxidation, H2O2 HRP-luminol luminescence | inhibition, % (no concentration beside the values) | hit rate 3.8% among 290,000 | AID 485317;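 active = mean and each replicate at 75% or more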;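 also: stock transfer was 7.5 nL into about 7.5 µL; 0% = neutral wells and 100% = wells with inactivated enzyme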
Target sequence (P55789 whole entry, looked up): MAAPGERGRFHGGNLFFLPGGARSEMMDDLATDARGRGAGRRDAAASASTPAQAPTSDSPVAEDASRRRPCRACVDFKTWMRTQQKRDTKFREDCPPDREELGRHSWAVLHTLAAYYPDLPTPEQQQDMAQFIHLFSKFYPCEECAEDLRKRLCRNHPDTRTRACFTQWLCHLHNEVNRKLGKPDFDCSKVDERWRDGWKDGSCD
Ecoli rRNA inh OD600 – also measured in Ecoli rRNA inh; calls as there; OD600 change, %; measured here: OD600 growth;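 optical density of the mix in the first replicate; 0 = DMSO median and -100 = no signal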
Ecoli rRNA inh RFP – also measured in Ecoli rRNA inh; calls as there; RFP signal change, %; measured here: RFP humanized mutant strains;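 first replicate; 0 = DMSO median and -100 = no signal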
Numbers without * were called inactive; i = inactive; . = no result given.

SMILES	Beta2AR agonist	HNF4A DNA FP	Ecoli rRNA inh	Ecoli rRNA inh OD600	Ecoli rRNA inh RFP	UCH37 DUB inh	E coli growth	FGF22 binding	ALR H2O2 inh
Cc1sc2nc(SCCN(C)C)n(-c3ccccc3)c(=O)c2c1-c1ccc(F)cc1	0	-1.0	-54	-73	-4.0	2.7	0.63	i	-8
CCCNCC(=O)Nc1cccc(S(=O)(=O)NC2=NCCCCC2)c1	1	-0.2	10	10	-0.4	0.0	0.71	i	21
CCCCn1c(N)c(N(CCOC)C(=O)CCCc2nc3ccccc3c(=O)[nH]2)c(=O)[nH]c1=O	-3	2.0	13	14	0.8	0.9	0.65	i	.
O=[N+]([O-])c1cnccc1Nc1cccc(F)c1	6	-2.7	.	.	.	3.4	0.65	.	.
Cc1c(S(=O)(=O)Nc2cccc(Cl)c2)c(=O)n(C)c(=O)n1C	11	0.6	4	15	-6.0	2.5	0.71	i	.
COc1ccc(C(=O)c2cc([N+](=O)[O-])ccc2N2CCOCC2)cc1	20	0.3	-19*	-12*	3.4*	4.2	0.69	i	.
S=C(NCCc1ccccc1)Nc1c(Cl)cccc1Cl	7	2.9	-25	-28	-4.2	4.4	0.68	i	2
C/C(N)=C(\C#N)C(=O)NCc1ccccn1	-6	-0.1	.	.	.	0.5	0.73	.	2
CC(C)(C)c1ccc2c(c1)N(CC(=O)N1CCCC1)C(=O)CO2	0	-0.3	-2	-1	-0.2	5.2	0.68	i	-8
COc1ccc(CNC(=O)c2c(C)cc(=O)oc2C)cc1OC	-6	-2.2	.	.	.	1.5	0.68	.	-3
C[C@H](NC(=O)c1ccc(Br)cc1)C(=O)NCc1ccc(S(N)(=O)=O)cc1	3	1.7	16	12	2.6	2.0	0.68	i	-13
CCc1ccc(CNC(=O)c2ccc3c(c2)NC(=O)C(N2CCOCC2)S3)cc1 (stereo not drawn)	9	6.9	-22	-14	1.4	4.7	0.71	i	-3
NS(=O)(=O)c1cccc(NC(=O)c2cc(=O)c3ccccc3o2)c1	0	2.5	9	7	0.0	1.5	0.7	i	1
COc1ccc(C(=O)NCCCOC(C)C)cc1OC1CCN(C(C)=O)CC1	0	-0.6	10	9	5.1	0.0	0.64	i	1
CN1CCN(S(=O)(=O)c2cccc(C(=O)N(c3ccccn3)C3CCCCC3)c2)CC1	3	0.2	.	.	.	1.5	0.75	.	2
O=C(COC(=O)c1nc(Cl)ccc1Cl)Nc1ccccc1OC(F)F	1	-0.8	-19*	-6.2*	1.9*	0.4	0.68	i	0
CNC(=O)c1cc(C(=O)c2ccc(Cl)cc2)c(Br)[nH]1	2	0.7	-1	-2	-2.3	6.1	0.67	i	-4
Cc1cc(C(=O)CN2C(=O)NC3(CCCc4ccccc43)C2=O)c(C)n1C (stereo not drawn)	4	1.1	.	.	.	-0.4	0.76	.	1
CCOC(=O)/C(N=Nc1cc(C(=O)O)cc(C(=O)O)c1)=C(\O)CCl	-6	-1.2	.	.	.	8.0	0.68	.	13
Cc1cc(=O)oc(C)c1C(=O)Nc1ccc(N(C)C)cc1	0	4.8	0	9	-1.2	1.7	0.65	i	.
O=C(NCc1ccc(Cl)cc1)C(=O)c1cn(CC(=O)N2CCOCC2)c2ccccc12	-2	-0.8	-2	-3	5.8	6.2	0.7	i	-10
CCCCn1c(N)c(N(CC(C)C)C(=O)c2ccc(C)o2)c(=O)[nH]c1=O	-1	1.3	4	5	-1.3	0.3	0.71	i	0
Cc1cc(C)n(CCCNC(=O)c2ccc3c(c2)NC(=O)CS3)n1	1	1.4	.	.	.	-1.2	0.71	.	-8
COC(=O)/C=C/c1oc2ccccc2c1C	3	-1.7	9	4	-1.7	-2.1	0.66	i	-5
O=C(NCCO)C(c1ccccc1)c1ccccc1	4	-1.4	.	.	.	1.3	0.72	.	-1
COc1ccc(CN2CCNC(=O)C2CC(=O)O)cc1OC (stereo not drawn)	-4	-2.1	7	8	2.3	1.0	0.77	i	-2
CCCCCCCCCCCCCCCC[N+](C)(C)CCl	4	10	-56	-73	-20	.	.	i	.
COc1cccc(-c2nnc(-c3ccccc3NC(=O)c3ccc(C(C)(C)C)cc3)o2)c1	17	3.9	5	9	-4.3	-39	0.67	i	1
CC1=CC(c2ccccc2)n2nc(N)nc2N1 (stereo not drawn)	-9	-1.5	.	.	.	-116	0.65	.	5
O=[N+]([O-])c1ccc(N(CC2CO2)S(=O)(=O)c2ccccc2)cc1 (stereo not drawn)	6	0.0	0	10	-0.7	0.7	0.66	i	.
Cc1ccnc(NC(=O)c2cccc(S(=O)(=O)NCc3ccccc3)c2)c1	-9	1.1	-7	-12	5.7	2.0	0.68	i	-2
COc1ccc(CN(CC(=O)NCc2ccccc2)C(=O)CCC(=O)Nc2nccs2)cc1	9	-2.8	1	12	0.4	2.2	0.69	i	.
COC(=O)c1cccc(Cn2nc(C)c([N+](=O)[O-])c2C)c1	6	-7.2	-7	-12	-0.1	-0.6	0.69	i	.
CC1(C)CC2CC(C)(CN2C(=O)c2cc(-c3ccccc3O)on2)C1 (stereo not drawn)	7	-1.7	6	4	0.3	1.2	0.77	i	.
CCCNC(=S)N1CCC(NC(=O)c2cccc(C)c2)CC1	2	2.2	2	6	-0.4	1.9	0.67	i	.
NC(=O)c1cccc(N=Cc2cc(Cl)cc(Cl)c2O)c1	15	-1.7	4	2	-0.5	-0.9	0.66	i	.
Cc1ccccc1-c1n[nH]c(=S)n1C	-9	1.2	.	.	.	-0.7	0.68	i	93*
Cc1ccc(N2CC(O)(c3cccs3)[N+]3=C2CCCC3)cc1 (stereo not drawn)	1	0.3	5	3	1.5	1.6	0.69	i	-4
Nc1nnnn1CC(=O)N/N=C/c1ccc(-c2cccc(Cl)c2)o1	-3	3.5	17	13	-0.3	.	.	i	-10
CCc1c(C)nc2ncnn2c1Nc1ccc(C#N)c(Cl)c1	20	1.7	.	.	.	7.4	0.72	.	5
COC(=O)c1ccc2c(=O)[nH]c(CSc3nnc(C(F)(F)F)n3C)nc2c1	1	1.2	.	.	.	-4.8	0.73	i	7
O=C(Nc1ccccc1)N1CCN(Cc2ccccc2)CC1	-7	-1.6	.	.	.	2.3	0.7	.	0
CCc1ccc(OCC(=O)N(C)C)c(Br)c1	-2	0.6	.	.	.	-0.6	0.63	.	-4
COc1ccccc1NS(=O)(=O)c1ccc(N/N=C/c2ccccc2OCC(=O)O)c([N+](=O)[O-])c1	9	-0.4	-2	-3	-7.3	.	.	i	7
O=C1CC(NCC2CCCO2)C(=O)N1c1ccc(F)cc1 (stereo not drawn)	-4	-1.0	12	5	-0.8	7.1	0.72	i	-14

Three entries out of the list, ordered by formula weight, descending:
SMILES	Beta2AR agonist	HNF4A DNA FP	Ecoli rRNA inh	Ecoli rRNA inh OD600	Ecoli rRNA inh RFP	UCH37 DUB inh	E coli growth	FGF22 binding	ALR H2O2 inh
CC1(C)CC2CC(C)(CN2C(=O)c2cc(-c3ccccc3O)on2)C1 (stereo not drawn)	7	-1.7	6	4	0.3	1.2	0.77	i	.
NC(=O)c1cccc(N=Cc2cc(Cl)cc(Cl)c2O)c1	15	-1.7	4	2	-0.5	-0.9	0.66	i	.
O=C1CC(NCC2CCCO2)C(=O)N1c1ccc(F)cc1 (stereo not drawn)	-4	-1.0	12	5	-0.8	7.1	0.72	i	-14

(next part)
SMILES	Beta2AR agonist	HNF4A DNA FP	Ecoli rRNA inh	Ecoli rRNA inh OD600	Ecoli rRNA inh RFP	UCH37 DUB inh	E coli growth	FGF22 binding	ALR H2O2 inh
COc1ccc(NC(=O)C2CCCC2)cc1	-7	2.5	0	-1	-1.6	-0.2	0.7	i	.
O=S(=O)(c1ccc(S(=O)(=O)N2CCC(O)CC2)cc1)N1CCCC1	0	-3.2	10	11	-2.3	2.7	0.64	i	-2
COc1ccc(-n2nc(C(=O)NCC(=O)NCc3ccc(F)cc3)c3ccccc3c2=O)cc1	-1	-0.3	3	17	-2.7	-16	0.69	i	2
O=C(O)COc1ccc2c(c1)O/C(=C\c1cccs1)C2=O	-4	-3.9	11	8	-5.3	1.0	0.64	.	4
COc1ccccc1NC(=O)c1ccc2[nH]c(C)c(C)c2c1	18	-2.1	-16	-4	2.2	0.3	0.68	i	87*
COC(=O)C1CCN(S(=O)(=O)c2cn(C)c(=O)n(C)c2=O)CC1	-2	-0.9	5	5	-0.2	0.8	0.7	i	-4
CC(OC(=O)CN(C)S(=O)(=O)c1ccc(Cl)cc1)C(=O)Nc1ncc(Cl)cc1Cl (stereo not drawn)	-1	1.0	.	.	.	2.4	0.74	.	0
O=C(Cc1c(O)c2ccccc2[nH]c1=O)NCc1cccc(F)c1	-6	-0.5	17	4	-5.7	-1.3	0.69	i	-29
CCOc1ccc(NS(=O)(=O)c2ccc(NS(C)(=O)=O)cc2)cc1	0	-1.9	.	.	.	-2.3	0.71	.	4
O=C(COc1ccc(-n2cnnn2)cc1)Nc1ccccc1Cl	-2	-1.4	-1	8	-3.2	1.2	0.7	i	1
CC(=O)Nc1cc(C(F)(F)F)ccc1Oc1cccc(Br)c1	1	-7.7	.	.	.	-0.4	0.72	.	3
COc1cccc(C(=O)NNC(=O)C2CC(C)=C(C)CC2C(=O)O)c1 (stereo not drawn)	3	-2.8	.	.	.	-2.5	0.72	.	-4
CC(C)(C)C(=O)NNC(=O)COc1ccc2ccccc2c1Br	0	-2.7	-14	1	7.7	3.6	0.72	i	-8
CCc1ccccc1NC(=O)/C(=C/c1ccccc1)c1ccccc1	-1	1.9	.	.	.	4.0	0.69	.	-34
CC(=O)c1cccc(S(=O)(=O)Nc2cccnc2)c1	6	4.1	10	10	-1.8	2.8	0.68	i	-7
CCn1c(C)nc2cc(C(=O)NNC(=O)CN(C)S(=O)(=O)c3ccc(NC(C)=O)cc3)ccc21	-5	1.2	12	12	1.4	-0.3	0.7	i	0
COc1cc(NC(=S)NC(=O)c2ccc(C)cc2C)ccc1NC(=O)c1cccs1	-5	0.6	.	.	.	1.4	0.72	.	.
C=CCn1c(SC)nnc1-c1ccc2ncccc2c1	-7	-2.0	6	10	0.4	2.1	0.66	i	-16
CCOc1ccc(NC(=O)CC2C(=O)N(c3ccc(OCC)cc3)C(=S)N2C2CC2)cc1 (stereo not drawn)	3	-0.7	4	14	2.6	5.1	0.74	i	1
CCOc1ccccc1NC(C)C(=O)Nc1cc(C(F)(F)F)ccc1N1CCOCC1 (stereo not drawn)	1	-0.5	.	.	.	5.5	0.69	.	-14
COc1ccc(N2C(=O)CC(N3CCN(c4cccc(Cl)c4)CC3)C2=O)cc1 (stereo not drawn)	-4	-1.5	3	-3	-3.5	3.7	0.61	i	2
N#CCCn1c(=S)[nH]c2ccccc21	-7	1.4	.	.	.	2.6	0.67	.	28
COc1cc(NC(=O)[C@@H](NC(=O)N2CCn3c2nc2ccccc23)C(C)C)cc(OC)c1	-9	0.5	-5	-10	4.3	-0.1	0.67	i	-8
O=[N+]([O-])c1ccc(Oc2ccc(Oc3ccc(C(F)(F)F)cn3)cc2)nc1	1	4.2	-3	-2	-3.4	1.2	0.62	i	-4
Cc1ccc(OCCOC(=O)c2sc(=S)n(C)c2C)cc1	0	3.0	6	2	-0.5	-0.8	0.74	.	1
Cc1ccc(-c2ccc(/C=N\n3cnnc3)o2)c(Br)c1	7	2.2	-5	-1	-2.1	.	.	i	-2

Looked up one by one from the entries so far (2):
SMILES	Beta2AR agonist	HNF4A DNA FP	Ecoli rRNA inh	Ecoli rRNA inh OD600	Ecoli rRNA inh RFP	UCH37 DUB inh	E coli growth	FGF22 binding	ALR H2O2 inh
CCOc1ccccc1NC(C)C(=O)Nc1cc(C(F)(F)F)ccc1N1CCOCC1 (stereo not drawn)	1	-0.5	.	.	.	5.5	0.69	.	-14
O=[N+]([O-])c1ccc(Oc2ccc(Oc3ccc(C(F)(F)F)cn3)cc2)nc1	1	4.2	-3	-2	-3.4	1.2	0.62	i	-4

This is a subset (hit frequency here may not be typical).
